Screens from PubChem BioAssay.
PV pol inh: inhibitors of poliovirus RNA polymerase binding and polymerization. P03300. poliovirus polymerase elongation, fluorescence polarization; hits give low values. % elongation, % (compound at 16.7 µg/mL). 150,000 tested, 0.66% active; in the data active = % elongation below about 90%; also: some results filed as inactive read as strong as hits
Mtb MbtI inh: blocks the Mycobacterium tuberculosis siderophore enzyme MbtI. P9WFX0. purified MbtI enzyme, fluorescence intensity read-out. inhibition, %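 (about 17 µg/mL by stock and volumes)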. 100,000 tested, 0.89% active;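 active = above 50% in both replicates, above 80% if mildly self-fluorescent; inactive = the rest, strongly fluorescent compounds included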;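 also: 0% = mean of negative and 100% = mean of positive controls; one replicate is shown; some compounds called inactive have numbers as strong as hits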
Target sequence (P9WFX0 whole entry, looked up): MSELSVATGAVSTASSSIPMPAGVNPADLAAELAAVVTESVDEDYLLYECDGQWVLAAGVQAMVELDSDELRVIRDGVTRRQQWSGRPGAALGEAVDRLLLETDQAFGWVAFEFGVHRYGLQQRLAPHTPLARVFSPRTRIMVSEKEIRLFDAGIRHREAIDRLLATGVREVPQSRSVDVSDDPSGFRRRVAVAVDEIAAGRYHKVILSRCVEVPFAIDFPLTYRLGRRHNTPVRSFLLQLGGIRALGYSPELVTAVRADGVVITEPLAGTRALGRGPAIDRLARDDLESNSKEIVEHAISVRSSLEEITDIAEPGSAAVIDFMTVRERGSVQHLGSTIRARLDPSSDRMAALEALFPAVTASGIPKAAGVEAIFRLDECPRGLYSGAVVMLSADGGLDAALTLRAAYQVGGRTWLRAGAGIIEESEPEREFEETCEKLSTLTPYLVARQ
Mtb MenB inh: inhibitors of Mycobacterium tuberculosis MenB enzyme. AID 540299. P9WNP5. inhibition, %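 (about 12 µg/mL by stock and volumes)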. 100,000 tested, 0.43% active. MenB enzyme assay, absorbance read-out; some hits fall short of the stated cut;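 active = mean of two replicates above 30%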;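 also: 0% = no compound and 100% = wells with inactive enzyme; the first replicate is given; strong numbers were not always called active; inactives centre near -10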
Target sequence (P9WNP5 whole entry, looked up): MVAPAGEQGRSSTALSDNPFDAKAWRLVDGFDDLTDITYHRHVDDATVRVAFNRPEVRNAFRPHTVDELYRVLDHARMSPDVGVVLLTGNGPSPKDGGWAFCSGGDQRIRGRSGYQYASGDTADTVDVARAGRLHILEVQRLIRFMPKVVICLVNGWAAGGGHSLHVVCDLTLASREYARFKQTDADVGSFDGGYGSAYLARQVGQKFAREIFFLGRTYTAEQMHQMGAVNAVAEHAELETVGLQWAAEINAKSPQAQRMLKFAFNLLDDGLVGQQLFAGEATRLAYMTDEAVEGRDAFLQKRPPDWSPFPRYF
PV pol inh intensity: also measured in PV pol inh; calls as there; % elongation; measured here: total intensity read-out; formula for this scale not given here;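 total fluorescence in place of polarization; lower means less elongation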
* = called active by the depositor; . = no result given.

SMILES	PV pol inh	PV pol inh intensity	Mtb MbtI inh	Mtb MenB inh
O=C(NCC1OCCc2ccccc21)C1OCCc2ccccc21 (stereo unspecified)	100	101	73	5
CC(C)NC(=O)CCSc1ccc(Cl)cc1	101	104	-9	-9
COc1ccccc1NC(=O)CSC(=O)c1ccccc1	101	103	87*	.
CCc1ncc(C(O)c2ccc(OC)cc2)n1C (stereo unspecified)	105	107	-12	.
CC(C)OC(=O)C(C)Oc1ccc2c(=O)c(-c3ccccc3)coc2c1 (stereo unspecified)	98	97	15	-15
CCSc1nnc(NC(=O)/C=C/c2ccco2)s1	103	106	-7	-13
COc1ccc(CN(C)C(=O)C2CC(=O)N(C3CCCC3)C2)cc1F (stereo unspecified)	102	100	10	-11
CCc1ccc(OCc2ccc(C(=O)OC)o2)cc1	100	105	26	-8
Cc1nnc2c3ccccc3nc(Nc3cccc(C(F)(F)F)c3)n12	104	101	0	-51
CC(C)n1cc(-c2noc(-c3ccccc3Cl)n2)c(=O)n(Cc2ccccc2)c1=O	101	107	-16	9
Cc1ccc(-c2nnn(CC(=O)N3CC(=O)Nc4ccccc43)n2)cc1	119	114	-6	1
CC(C)NC(=O)NCc1c(F)cccc1Cl	106	107	-7	-9
Cc1nnsc1-c1noc(C)c1-c1nc(-c2cc(C(F)(F)F)cc(C(F)(F)F)c2)no1	104	106	11	-14
COC(=O)CNc1ccc(C)c(C)c1	102	103	-10	-40
COc1ccc(NC=O)c2ncccc12	101	104	-2	9
COC(=O)c1sc(SC)c(C#N)c1-c1cccc(Cl)c1	104	108	-7	-14
CC(C)(C)c1cc(C(=O)Oc2cncc(Cl)c2)cc(C(=O)Oc2cncc(Cl)c2)c1	99	106	-5	6
CN(CC(=O)Nc1cccc2ccccc12)Cc1nc2ccccc2c(=O)[nH]1	98	103	-7	-36
Cc1cc(C)cc(N(C(C)C(N)=O)S(C)(=O)=O)c1 (stereo unspecified)	98	103	-2	13
COC(CNC1=CC(=O)OC12CCCCC2)OC	100	101	-11	2
Cc1ccccc1NS(=O)(=O)c1ccc2c(c1)n(C)c(=O)n2C	103	107	-10	0
CC(O)c1cccc(NC(=O)C2C3C=CC(C3)C2C(=O)O)c1 (stereo unspecified)	98	100	-7	-11
CCc1sc(NC(=O)CN2CCCC2)nc1-c1ccccc1	100	100	1	-28
COc1ccc2c(c1)C(=O)CC(c1ccc3c(c1)OCCO3)O2 (stereo unspecified)	103	109	-1	9
COc1ccc(CCN=C=S)cc1	77*	83*	96*	-68
Cc1ccc(C(O)CCC(=O)O)cc1 (stereo unspecified)	99	101	-8	1
CCCN1CCC(NCCc2ccc(Cl)cc2)CC1	101	102	-8	-20
S=c1[nH]nc(Cc2cccc3ccccc23)n1/N=C/c1ccco1	99	94	65*	-37
Cc1nnc(COc2ccc3ccccc3c2Br)o1	100	108	0	-21
CC1(C)Cc2ccccc2C(N2CCOCC2)=N1	102	108	.	8
O=C(CCSc1ccccc1)NCc1ccco1	106	105	.	-23
COc1ccc(-c2cc(C(=O)NCc3cccc(OC)c3)c3ccccc3n2)cc1	102	107	18	-10
Oc1c(C=Nc2ccc(Cl)cc2)[nH]c2ccccc12	69	193	42	-63
CC(OC(=O)Cc1ccsc1)C(=O)Nc1ccc(Cl)cn1 (stereo unspecified)	103	100	-8	14
CCOc1ccc(OCCSc2nc(C)cc(=O)[nH]2)cc1	104	109	0	-13
CCCCn1c(CCC(=O)OCc2csc(-c3ccccc3)n2)nc2cc(S(=O)(=O)N3CCOCC3)ccc21	101	108	3	-22
COc1ccc(CNCC(=O)O)cc1	104	99	0	10
COC(=O)c1cc2c(cc1N)OCCO2	99	98	88	-30
O=C(C1=C2SC=C(c3ccc(Br)cc3)N2CC1)c1cncc(Br)c1	69	125	23	-7
Cc1cc(C)n(-c2nc3cc(Cl)ccc3nc2NCc2ccc(F)cc2)n1	102	103	-13	-15
CC(=O)NNc1ncnc2c1cnn2-c1ccc(F)cc1	102	103	-2	-15
Fc1cccc2sc(NCc3ccccc3)nc12	101	106	-1	-15
O=C(Nc1cccc(N2CCCC2=O)c1)C1CCN(C(=O)/C=C/c2ccccc2)CC1	92	97	1	-1
Nc1ccccc1-c1nc2ccccc2s1	103	103	90	-25
O=C(NCCCc1ccco1)c1ccc(Cn2c(SCc3ccccc3)nc3cccnc32)cc1	102	103	87	-25
CC1(C)C(c2ccccc2)=NC(c2ccccc2)=[N+]1[O-]	100	103	11	-53
O=C(N=C1SCCN1CC(O)c1ccccc1)c1ccccc1 (stereo unspecified)	100	102	16	-8
Cc1ccc(S(=O)(=O)Nc2cncc(C(=O)N3CCc4ccccc43)c2)cc1	99	100	6	-19
NC1=NC(=O)CC(C(=O)Nc2ccccc2)S1 (stereo unspecified)	103	105	-2	11
O=C(NCc1ccccc1)c1ccccc1	103	109	.	8
N#Cc1ccc(Sc2ccc(C#N)c(C#N)c2)cc1C#N	100	105	100*	-53
Cc1n[nH]c(C)c1CN	102	100	5	-40
COc1ccccc1Nc1nnc(SCC(=O)Nc2ccnn2C(C)C)s1	102	99	23	4
CCCCOc1ccc(C(=O)Nc2cccc(NC(=O)c3ccco3)c2)cc1	102	103	-13	-21
CCCC(CCC)C(=O)N1CCNc2ccccc2C1	105	101	-1	-29
C/C=C/c1n(C)c2ccccc2[n+]1C	100	102	95	4
COc1ccc(C(Nc2cc(C)ccn2)c2ccc3cccnc3c2O)cc1O (stereo unspecified)	96	127	93	-96
COc1ccc(C(=S)N2CCCCC2)cc1OC	98	92	82*	-37
N#Cc1cccc(C(=O)Nc2ccc(S(=O)(=O)N3CCCCC3)cc2)c1	97	101	4	-15
CN(C(=O)N1c2ccccc2Sc2ccccc21)c1ccccc1	105	108	-1	-42

Arranged by SMILES length (largest number first): some entries from above.
SMILES	PV pol inh	PV pol inh intensity	Mtb MbtI inh	Mtb MenB inh
O=C(Nc1cccc(N2CCCC2=O)c1)C1CCN(C(=O)/C=C/c2ccccc2)CC1	92	97	1	-1
O=C(NCCCc1ccco1)c1ccc(Cn2c(SCc3ccccc3)nc3cccnc32)cc1	102	103	87	-25
Cc1ccc(S(=O)(=O)Nc2cncc(C(=O)N3CCc4ccccc43)c2)cc1	99	100	6	-19
N#Cc1cccc(C(=O)Nc2ccc(S(=O)(=O)N3CCCCC3)cc2)c1	97	101	4	-15
CCCCOc1ccc(C(=O)Nc2cccc(NC(=O)c3ccco3)c2)cc1	102	103	-13	-21
COc1ccc(C(Nc2cc(C)ccn2)c2ccc3cccnc3c2O)cc1O (stereo unspecified)	96	127	93	-96
COc1ccccc1Nc1nnc(SCC(=O)Nc2ccnn2C(C)C)s1	102	99	23	4
CN(C(=O)N1c2ccccc2Sc2ccccc21)c1ccccc1	105	108	-1	-42
N#Cc1ccc(Sc2ccc(C#N)c(C#N)c2)cc1C#N	100	105	100*	-53
CC(=O)NNc1ncnc2c1cnn2-c1ccc(F)cc1	102	103	-2	-15
NC1=NC(=O)CC(C(=O)Nc2ccccc2)S1 (stereo unspecified)	103	105	-2	11
CCCC(CCC)C(=O)N1CCNc2ccccc2C1	105	101	-1	-29
COc1ccc(C(=S)N2CCCCC2)cc1OC	98	92	82*	-37
Fc1cccc2sc(NCc3ccccc3)nc12	101	106	-1	-15
Nc1ccccc1-c1nc2ccccc2s1	103	103	90	-25
Cc1n[nH]c(C)c1CN	102	100	5	-40

Additional compounds follow.
SMILES	PV pol inh	PV pol inh intensity	Mtb MbtI inh	Mtb MenB inh
O=C(OC1CCCC1)c1c(F)cccc1Cl	113	106	-14	-30
CC(=O)Nc1c(C(=O)c2ccccc2)oc2ccccc12	105	104	.	-19
CSCc1c(C(=O)Nc2ccccc2N2CCOCC2)oc2ccccc12	100	104	-6	-12
CCn1c(CSc2ccc(OC)cc2)nc2cc(S(=O)(=O)N3CCCCC3)ccc21	102	108	6	-5
CC1CC(N)C(=O)O1 (stereo unspecified)	99	102	-10	-17
CCOc1ccc(NC(=O)NCCCN2CCCC2)cc1	103	107	-4	-5
COc1ccccc1N1CCN(CC(=O)c2ccc(F)cc2)CC1	103	99	0	19
C=CCOc1c(-c2ccco2)oc2ccccc2c1=O	101	105	-40	0
COc1ccc(-c2csc3c(C#N)c(C)cc(=O)n23)cc1	106	103	2	-22
O=C(CSc1ncc(C(F)(F)F)cc1Cl)N1CCNC1=O	104	100	58*	3
FC(F)(F)c1nnc2ccc(-n3ccnc3)nn12	105	111	.	-19
COc1ccc(/C=N/S(=O)(=O)c2ccccc2)c(OC)c1	98	96	20	1
COc1cc(/C=N/NC(=S)NCc2ccco2)ccc1O	102	95	35	-20
c1ccc(Nc2nc(Nc3ccccc3)nc(Sc3nc4ccccc4[nH]3)n2)cc1	102	106	5	-44
CC1=C(C(=O)Nc2ccccc2Br)C2(CCCCC2)OC1=O	101	103	6	-3

By substructure, the entries above containing a thiophene ring, fused or not (2)
SMILES	PV pol inh	PV pol inh intensity	Mtb MbtI inh	Mtb MenB inh
COC(=O)c1sc(SC)c(C#N)c1-c1cccc(Cl)c1	104	108	-7	-14
CC(OC(=O)Cc1ccsc1)C(=O)Nc1ccc(Cl)cn1 (stereo unspecified)	103	100	-8	14

(next part)
SMILES	PV pol inh	PV pol inh intensity	Mtb MbtI inh	Mtb MenB inh
O=C1CC(c2ccccc2)CC(O)=C1C=NCc1ccccn1 (stereo unspecified)	99	104	2	-22
O=C(c1cc2sccc2n1Cc1ccccc1)N1CCCC1	104	104	3	-10
O=C(CSc1ncn[nH]1)Nc1ccccc1Cl	99	98	83	-5
Cc1ncc(CO)c2cc(C(=O)NC3=CC4OCOC4C=C3)c(=Nc3ccccc3)oc12 (stereo unspecified)	104	105	2	5
Cc1ccc(S(=O)(=O)N2CCN(S(=O)(=O)c3ccc(C)cc3)CC2)cc1	103	103	-7	1
Cc1onc(-c2c(Cl)cccc2Cl)c1NC(=O)N1CCCC1=O	102	106	-6	3
CN1C=C(C(F)(F)F)C=C/C1=C(/C#N)c1nnc2n1CCCCC2	106	103	4	-114
CCOC(=O)c1sc(NC(=O)CC)nc1C	103	109	-7	-16
Fc1ccc(NCc2c[nH]c3ccccc23)cc1	99	103	9	-2
O=C(Cc1ccccc1)Sc1ncn[nH]1	100	98	.	5
CC(C)C(=O)Nc1cc(-c2ccccc2)no1	100	102	12	-9
c1ccc2c(c1)CCCN2Cc1cn2ccccc2n1	90	86	.	-32
COc1ccc(-c2nnc(SCc3ccc(C#N)cc3)n2CC(C)C)cc1	97	77	14	-18
CN1C(=O)C(C)(C)Nc2ccccc21	101	100	6	6
CC1Cc2ccccc2N1Cc1ccc(-n2ccnc2)cc1 (stereo unspecified)	103	105	-6	-15
CC(C)C1N=C2c3ccccc3N=C(SCC(=O)c3ccc(Br)cc3)N2C1=O (stereo unspecified)	103	106	8	2
COc1ccc(CC(=O)N(CC#N)CC#N)cc1OC	106	100	.	-20
CC(c1ccccc1)n1cnc2ccccc2c1=O (stereo unspecified)	105	110	.	1
CCS(=O)(=O)NCCc1csc(C)n1	103	104	6	8
COc1ccccc1NC(=O)c1ccc2c(c1)C(=O)N(CC1CCCO1)C2=O (stereo unspecified)	99	102	0	0
COc1ccc(C(=O)N(CC#N)CC#N)cc1OC	98	101	-1	-17
CCOC(=O)c1ccc2ncc(C(=O)OCC)c(NCCCN3CCOCC3)c2c1	105	101	15	-4
CSc1cccc(N2CC(C(=O)O)CC2=O)c1 (stereo unspecified)	102	101	-9	.
O=P(c1ccccc1)(c1ccccc1)C(O)c1ccc2c(c1)OCO2 (stereo unspecified)	99	100	-1	28
CN1CCN(C(=O)c2cn(-c3ccccc3)nc2-c2cccs2)CC1	110	110	-14	-13
CC(=O)NCc1ccccc1	107	109	13	2
CCN(CC)S(=O)(=O)c1ccc2oc(C(=O)Nc3cccc(Cl)c3)c(C)c2c1	102	104	19	-10
CSc1ncc(C(=O)NCc2ccccc2)c(C)n1	106	102	-4	-46
O=C(O)CCN=C1CCc2ccccc2N1	104	103	-2	-3
CC(C)(C)Oc1ccc(CC(CO)NC(=O)OCC2c3ccccc3-c3ccccc32)cc1 (stereo unspecified)	109	107	-8	-19
c1nc(NC2CCCC2)c2c3c(sc2n1)CCC3	102	103	.	-1
CC1(C)Cc2cccc(OCC(=O)OCC(=O)c3ccc4[nH]c(=O)[nH]c4c3)c2O1	101	92	-7	-7
CC(C)Cn1c(=O)c(-[n+]2ccccc2)c([O-])c2ccccc21	100	94	-5	-5
CCOCCC(=O)Nc1ccccc1C(F)(F)F	102	103	5	4
CC(CN1C(C)CCCC1C)OC(=O)c1ccc(Cl)cc1 (stereo unspecified)	105	102	0	-7
NC(=O)C1CCN(CC(=O)N2N=CCC2c2ccccc2)CC1 (stereo unspecified)	101	102	-7	4
CC1CCN(S(=O)(=O)N2CCCC(C(=O)O)C2)CC1 (stereo unspecified)	99	100	-2	7
CC(=C1C(=O)c2ccccc2C1=O)N1CCN(Cc2ccccc2)CC1	98	103	15	-38
O=C(/C=C/c1ccco1)OCC(=O)c1ccc(O)cc1O	105	96	9	-39
O=C1CCCc2nccc(-c3ccccc3)c21	103	102	-6	-29
O=C1c2ccccc2C(=O)N1CCCc1nc(-c2ccc(Cl)cc2)no1	104	100	13	5
O=C(CSC1=NCCS1)N1CCN(c2ccccc2)CC1	101	106	9	-4
CCOC(=O)c1[nH]c2ccccc2c1NC(C)=O	103	102	36	-18
COc1ccc2cc(/C=C3/C(=O)NC(=S)N3C(C)=O)c(N3CCOCC3)nc2c1	97	113	-14	-25
CC(=NCc1ccc(C)cc1)c1c(O)cc(C)oc1=O	108	110	8	-11
NS(=O)(=O)c1ccc(NC(=O)CCCC(=O)N2CCOCC2)cc1	104	101	-4	-16
Cc1cc(C)nc(-n2nc(C)cc2NC(=O)c2ccc(Cl)c(S(=O)(=O)N3CCOCC3)c2)n1	102	97	18	-7
